VCAM-1 imaging = inhibitors of TNFa-induced VCAM-1 surface display, imaging, high-content imaging, pooled HUVEC, TNFa stimulus (AID 456). one-dose inhibition, % at 5 µM; IC50 in µM for titrated hits. HUVEC TNFa-induced VCAM-1 surface expression, immunofluorescence imaging; numbers were filed only for top-ranked candidate wells. 10,000 compounds, 0.2% hits;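 active means top tenth filtered wells with inhibition above zero that passed visual or statistical confirmation; inactive means the rest, including hits rejected on review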;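 further: 0% = stimulated vehicle wells and 100% = unstimulated cells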
VCAM-1 down = inhibitors of TNFa-induced VCAM-1 surface display, cell-based, plate reader, pooled HUVEC, TNFa stimulus (AID 454); HUVEC TNFa-induced VCAM-1 surface immunofluorescence, plate reader; numbers were filed only for top-ranked candidate wells; inhibition, % at 5 µM; 10,000 compounds, 0.2% hits;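 active means compound among top-ranked inhibitors of TNF-induced VCAM-1 adhesion protein staining, with the hit upheld by image or statistical review; inactive means the rest, including hits rejected on review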;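 further: 0% = TNFa with vehicle and 100% = cells without TNFa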
VCAM-1 augmentation = boosters of cytokine-driven VCAM-1 levels – imaging, high-content imaging, pooled HUVEC, TNFa stimulus (AID 457); Pooled HUVEC, TNFa-induced VCAM-1 immunofluorescence imaging; hits of this screen are not shown here; 10,000 compounds, 0.2% hits; calls only;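 active means a top-ranked rise in VCAM-1 staining upheld on image or statistical review; inactive means the rest, including candidates rejected on review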;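 further: compounds tested at 5 µM in the well; cells exposed to compound for 24 hours before fixing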
FPR binder = ligands of human FPR, also counter-screen for FPRL1 ligands. FPR-expressing cells, fluorescent ligand binding, flow cytometry. inhibition, %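 (tested at 6.7 µM)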. 24,000 compounds, 0.74% hits. AID 440;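 further: 0% = buffer wells and 100% = receptor blocker peptide wells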
Target sequence (P21462 whole entry, looked up): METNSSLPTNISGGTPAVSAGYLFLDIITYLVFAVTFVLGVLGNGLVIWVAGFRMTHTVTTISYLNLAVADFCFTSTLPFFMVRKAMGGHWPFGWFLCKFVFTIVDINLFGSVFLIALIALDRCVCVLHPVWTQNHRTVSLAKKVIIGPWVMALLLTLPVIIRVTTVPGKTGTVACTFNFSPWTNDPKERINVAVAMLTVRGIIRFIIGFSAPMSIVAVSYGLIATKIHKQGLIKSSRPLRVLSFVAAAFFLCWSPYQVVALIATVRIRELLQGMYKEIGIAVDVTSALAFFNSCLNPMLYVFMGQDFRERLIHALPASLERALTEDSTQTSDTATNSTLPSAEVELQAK
FPRL1 binder = human FPRL1 ligand, with FPR counter-screen; FPRL1-expressing cells, fluorescent ligand binding inhibition, flow cytometry; 24,000 compounds, 0.3% hits; P25090; inhibition, %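 (tested at 6.7 µM)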; AID 441;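 further: 0% = buffer alone and 100% = receptor blocker peptide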
Target sequence (P25090 whole entry, looked up): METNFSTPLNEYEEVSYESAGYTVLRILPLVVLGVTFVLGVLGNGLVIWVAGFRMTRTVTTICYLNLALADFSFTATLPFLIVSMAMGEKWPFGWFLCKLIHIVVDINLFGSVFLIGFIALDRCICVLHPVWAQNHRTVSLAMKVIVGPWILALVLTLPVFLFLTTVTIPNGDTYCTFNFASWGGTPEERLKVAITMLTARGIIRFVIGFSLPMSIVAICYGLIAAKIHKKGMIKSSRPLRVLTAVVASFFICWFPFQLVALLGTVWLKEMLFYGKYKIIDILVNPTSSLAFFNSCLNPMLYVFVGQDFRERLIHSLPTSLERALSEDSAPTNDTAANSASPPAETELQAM
* = called active by the depositor; i = inactive; . = no result given.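 How the source made its calls, unless noted: active means mean above 30%; inconclusive means self-fluorescent; inactive means the rest.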 A portion of the library (hit frequency here may not be typical).

SMILES	VCAM-1 imaging	VCAM-1 down	VCAM-1 augmentation	FPR binder	FPRL1 binder
CCCCSC1=C(C#N)C(c2ccccc2C)C(C(=O)OCC)C(=O)N1 (stereo unspecified)	.	.	.	17	-6
Cc1ccc(C(C(=O)NC2CCCCC2)N2CCOCC2)cc1 (stereo unspecified)	i	i	i	-1	6
CCOC(=O)N1CCC(N2C(=O)c3ccccc3C2Nc2cc(OC)c(OC)c(OC)c2)CC1 (stereo unspecified)	.	.	.	5	-1
COc1ccc(C2=Nn3c(nnc3-c3ccccc3)SC2)cc1OC	i	i	i	4	5
O=C(CCCNS(=O)(=O)c1cccc2nsnc12)N1CCCCC1	.	.	.	-3	-1
Cc1ccc(NC(=O)c2ccccc2F)nc1	i	i	i	-12	-2
Cc1ccc(S(=O)(=O)N2CCN(S(C)(=O)=O)C2c2ccccc2)cc1 (stereo unspecified)	i	i	i	6	12
CCC1Oc2ccc(Cl)cc2N(CC(=O)O)C1=O (stereo unspecified)	.	.	.	4	-4
COc1ccccc1S(=O)Cc1ccc(C(=O)NCCc2ccc(Cl)cc2)o1 (stereo unspecified)	.	.	.	6	-2
CCS(=O)(=O)NCc1ccc2[nH]c3c(c2c1)CCCC3	.	.	.	0	0
Cc1cccc(-n2nc3c(c2NC(=O)c2ccc(Br)o2)CSC3)c1C	.	.	.	6	-1
CSc1nc2c(c(=O)n1C)SC(C)C2 (stereo unspecified)	i	i	i	-4	-2
CCOC(=O)c1cccc(NC(=O)C2CCN(S(=O)(=O)c3cccs3)CC2)c1	i	i	i	-5	-3
CCN(c1c(C)n(C)n(-c2ccccc2)c1=O)S(C)(=O)=O	i	i	i	4	2
CC1CCN(CCCNC(=O)c2cn(C)c3ccc(S(=O)(=O)N4CCCC4)cc3c2=O)CC1	i	i	i	-8	2
O=C(Nc1ccc2c(c1)OCO2)c1cccc2c1C(=O)N(C1CCCCC1)C2	.	.	.	-6	0
COc1ccc(-n2c(SCC(=O)c3c(N)n(C)c(=O)n(C)c3=O)nc3ccccc32)cc1	i	i	i	3	1
CCOC(=O)c1cnn(-c2cc(C)c3cc(C)cc(C)c3n2)c1N	i	i	i	-2	7
O=C1CN(CC(=O)N2CCOCC2)c2ccccc2O1	.	.	.	10	10
O=C(CSc1nc2ccccc2o1)N1CCN(C(=O)c2ccco2)CC1	i	i	i	1	-1
Cn1c(C(=O)NCC2CCCO2)cc2oc3ccccc3c21 (stereo unspecified)	.	.	.	1	10
O=C(NCc1ccc(F)cc1Cl)C1CCN(S(=O)(=O)N2CCC3(CC2)OCCO3)CC1	.	.	.	2	-5
Cc1cc(C)c2c(n1)sc1c(N3CCOCC3)ncnc12	i	i	i	-1	4
O=C(Nc1ccc(F)cc1)N(Cc1ccco1)Cc1cc2cc3c(cc2[nH]c1=O)OCO3	i	i	i	1	-11
CCc1ccc(C2CC(c3cccc(OC)c3)n3nc(N)nc3N2)cc1 (stereo unspecified)	i	i	i	-5	-1
Cc1noc(C)c1S(=O)(=O)N1CCC(C(=O)N2CCN(C3CCCC3)CC2)CC1	.	.	.	-5	0
CCCn1c(=NC(C)=O)c(C#N)cc2c(=O)n3cccc(C)c3nc21	i	i	i	1	4
COc1ccc(N(CC(=O)N2CCC(C)CC2)S(=O)(=O)c2c(C)nn(C)c2C)cc1	.	.	.	0	-2
O=C(NCC1CCCO1)C1CCCN(Cc2cnn(-c3ccccc3)c2-n2cccc2)C1 (stereo unspecified)	i	i	i	-4	-3
CC(=O)N1CCN(C(C)=O)C1c1ccccc1	i	i	i	-2	6
CNC(=O)CSc1nc2c(c(=O)n(C)c(=O)n2C)n1Cc1ccc(C)cc1	i	i	i	-1	2
O=C(NCc1ccco1)C1CCN(C(=O)c2cc3sccc3n2Cc2ccc(Cl)cc2)CC1	.	.	.	19	24
CC(Sc1nnnn1-c1ccccc1)C(=O)Nc1ccc(Cl)cn1 (stereo unspecified)	i	i	i	2	-7
CCN(CC)S(=O)(=O)c1ccc(C(=O)NCc2n[nH]c(=S)n2-c2ccccc2OC)cc1	.	.	.	-2	-1
COc1ccc(C)cc1-n1nnnc1SC/C(O)=C(\C#N)c1nc2ccccc2[nH]1	i	i	i	7	-2
CCc1ccccc1NC(=O)CN(c1cccc(OC)c1)S(C)(=O)=O	i	i	i	-1	8
O=c1[nH]n(-c2ccccc2)c(=O)c2ccccc12	.	.	.	-4	2
COc1ccc(C2C(C(=O)Nc3ccccc3OC)=C(C)Nc3ncnn32)cc1 (stereo unspecified)	.	.	.	-8	-2
Cc1noc(C(=O)NCc2cccnc2)c1Cl	.	.	.	-4	11
O=c1cc[nH]c2cc(C(F)(F)F)ccc12	.	.	.	-4	-4
Cn1c(=O)oc2cc(S(=O)(=O)N3CCC(C(=O)N4CCN(c5ccccc5)CC4)CC3)ccc21	.	.	.	1	8
CCSc1ccccc1C(=O)Nc1cccc(OC)c1	i	i	i	-4	1
O=S(=O)(Cc1ccccc1)N1CCN(Cc2ccccc2)CC1	i	i	i	-6	-1
COc1ccc(C2C(C(=O)N3CCN(C)CC3)c3ccccc3C(=O)N2C2CCCCC2)cc1 (stereo unspecified)	.	.	.	3	3
O=C(C1CCN(S(=O)(=O)c2cccnc2)CC1)N1CCN(c2ccccc2Cl)CC1	.	.	.	2	-6
c1ccc(N2CCN(c3nc4cc5c(cc4s3)OCO5)CC2)cc1	.	.	.	7	-2
O=C1C(=O)N(Cc2cccnc2)C(c2ccccn2)/C1=C(/O)c1ccccc1 (stereo unspecified)	.	.	.	-12	7
COc1ccc(NC(=O)C2Cc3ccccc3C(=O)O2)cc1 (stereo unspecified)	i	i	i	-5	-2
CCc1nc2nc(C)cc(Nc3cccc(C(F)(F)F)c3)n2n1	.	.	.	-2	4
O=C(NCCc1ccccc1)C1c2ccccc2C(=O)N1C1CC1 (stereo unspecified)	.	.	.	-7	6
O=S(=O)(c1ccc(Br)s1)N1CCN(c2ccccc2)CC1	i	i	i	4	1
CCN1CCN(C(=O)CCCCCn2c(=O)[nH]c3cc(C(=O)OC)ccc3c2=O)CC1	.	.	.	-3	1
CCCCn1c(NCCO)nc2ccccc21	.	.	.	4	-1
Cc1ccc(NC(=O)CCNS(=O)(=O)c2ccc3c(c2)oc(=O)n3C)cc1	.	.	.	-2	6
Cc1nc(NCc2ccc3c(c2)OCO3)c2oc3ccccc3c2n1	i	i	i	13	3
CCOC(=O)N1CCC(NC(=O)c2cc(C(=O)Nc3cccc(OC)c3)ccc2CO)CC1	.	.	.	6	3
CCCN(CCC)C(=O)CCS(=O)(=O)c1cccc2nsnc12	.	.	.	-3	-5
Cc1ccc(S(=O)(=O)NCCCCCC(=O)N(C)C)cc1	.	.	.	8	4
O=C(O)c1ccc(CSCc2ccccc2F)o1	.	.	.	-1	-6
CCC1CCCCN1C(=O)COc1cc(=O)n(C)c2ccccc12 (stereo unspecified)	.	.	.	-2	-2

20 consecutive records out of the list so far, for reference:
SMILES	VCAM-1 imaging	VCAM-1 down	VCAM-1 augmentation	FPR binder	FPRL1 binder
Cn1c(=O)oc2cc(S(=O)(=O)N3CCC(C(=O)N4CCN(c5ccccc5)CC4)CC3)ccc21	.	.	.	1	8
CCSc1ccccc1C(=O)Nc1cccc(OC)c1	i	i	i	-4	1
O=S(=O)(Cc1ccccc1)N1CCN(Cc2ccccc2)CC1	i	i	i	-6	-1
COc1ccc(C2C(C(=O)N3CCN(C)CC3)c3ccccc3C(=O)N2C2CCCCC2)cc1 (stereo unspecified)	.	.	.	3	3
O=C(C1CCN(S(=O)(=O)c2cccnc2)CC1)N1CCN(c2ccccc2Cl)CC1	.	.	.	2	-6
c1ccc(N2CCN(c3nc4cc5c(cc4s3)OCO5)CC2)cc1	.	.	.	7	-2
O=C1C(=O)N(Cc2cccnc2)C(c2ccccn2)/C1=C(/O)c1ccccc1 (stereo unspecified)	.	.	.	-12	7
COc1ccc(NC(=O)C2Cc3ccccc3C(=O)O2)cc1 (stereo unspecified)	i	i	i	-5	-2
CCc1nc2nc(C)cc(Nc3cccc(C(F)(F)F)c3)n2n1	.	.	.	-2	4
O=C(NCCc1ccccc1)C1c2ccccc2C(=O)N1C1CC1 (stereo unspecified)	.	.	.	-7	6
O=S(=O)(c1ccc(Br)s1)N1CCN(c2ccccc2)CC1	i	i	i	4	1
CCN1CCN(C(=O)CCCCCn2c(=O)[nH]c3cc(C(=O)OC)ccc3c2=O)CC1	.	.	.	-3	1
CCCCn1c(NCCO)nc2ccccc21	.	.	.	4	-1
Cc1ccc(NC(=O)CCNS(=O)(=O)c2ccc3c(c2)oc(=O)n3C)cc1	.	.	.	-2	6
Cc1nc(NCc2ccc3c(c2)OCO3)c2oc3ccccc3c2n1	i	i	i	13	3
CCOC(=O)N1CCC(NC(=O)c2cc(C(=O)Nc3cccc(OC)c3)ccc2CO)CC1	.	.	.	6	3
CCCN(CCC)C(=O)CCS(=O)(=O)c1cccc2nsnc12	.	.	.	-3	-5
Cc1ccc(S(=O)(=O)NCCCCCC(=O)N(C)C)cc1	.	.	.	8	4
O=C(O)c1ccc(CSCc2ccccc2F)o1	.	.	.	-1	-6
CCC1CCCCN1C(=O)COc1cc(=O)n(C)c2ccccc12 (stereo unspecified)	.	.	.	-2	-2

New compounds follow.
SMILES	VCAM-1 imaging	VCAM-1 down	VCAM-1 augmentation	FPR binder	FPRL1 binder
O=C(O)c1cnn2c1NC(c1ccc(F)cc1)CC2C(F)(F)F (stereo unspecified)	i	i	i	6	2
Cc1cc(NC(=O)CSc2ccc3nnc(-c4ccccc4)n3n2)no1	.	.	.	-1	0
COc1ccc(C2=NOC(C(=O)NC(C)(C)C)C2)cc1 (stereo unspecified)	.	.	.	0	2
Cc1cnn(C(=S)NCc2ccco2)c1	i	i	i	-7	1
CCOC(=O)CSc1nnc(Cc2cc(=O)[nH]c(=O)[nH]2)n1-c1ccc(Cl)cc1	.	.	.	-1	-4
Cc1ccc(-n2nnc3c(SCC(=O)NCC4CCCO4)ncnc32)cc1 (stereo unspecified)	.	.	.	2	-4
CS(=O)(=O)NCc1csc(-c2ccccc2)n1	.	.	.	0	1
O=C(C1CCC(Cn2c(=S)[nH]c3ccccc3c2=O)CC1)N1CCOCC1 (stereo unspecified)	.	.	.	-2	-2
Cc1cc(C(=O)N2CCN(C(c3ccccc3)c3ccccc3)CC2)on1	.	.	.	0	3
COC(=O)Cn1ncc2c3ccccc3n(C)c2c1=O	.	.	.	-1	-4
COc1ccccc1-c1cc(C(=O)N2CCN(c3ccc(F)cc3)CC2)no1	.	.	.	7	4
CCOC(=O)N1CCC(NC(=O)c2cc(S(=O)(=O)N3CCc4ccccc43)cn2C)CC1	.	.	.	17	1
O=C(NC1CCCCC1)C1CCCN(S(=O)(=O)c2cccs2)C1 (stereo unspecified)	.	.	.	-4	3
Cc1ccc(-n2nc3c(c2NC(=O)c2ccc4c(c2)OCO4)CSC3)cc1	.	.	.	-7	6
CCN(CC)CCn1c(=S)[nH]c2ccc(Cl)cc2c1=O	.	.	.	-2	-2
O=C(CCC1=NS(=O)(=O)c2ccccc2N1)NC1CCCCCCC1	.	.	.	-1	2
CCOCC(=O)Nc1ccc(S(=O)(=O)N2CCOCC2)cc1	i	i	i	-2	5
CCCCn1nnnc1SCC(=O)Nc1cccc(C)n1	i	i	i	-7	3
CCCc1cc(C(=O)Nc2cccc(C(C)=O)c2)no1	.	.	.	-2	1
CCOC(=O)Cn1c(CCC(=O)O)ccc1-c1ccc(F)cc1	i	i	i	-6	-2
COc1ccc(N2C(=O)CCC(C(=O)N3CCCCCC3)C2c2ccc(OC)c(OC)c2)cc1 (stereo unspecified)	.	.	.	2	-9
CCOC(=O)CSc1nnc(CNC(=O)c2cccs2)n1-c1cc(OC)ccc1OC	i	i	i	-2	-2
Cc1ccc(CN2CCN(CC(=O)NCc3ccc(Cl)cc3)C2=O)cc1	.	.	.	2	9
